Screening results from PubChem.
Beta apoptosis = blocks beta cell apoptosis | INS-1E cytokine-induced death, ATP luminescence, 48 h; percent of positive-control rescue, neutral wells zero | AID 435005 | protection from apoptosis, % (concentration not given with the values) | actives 0.8% (n = 300,000);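 active = all replicates at 75% or more, or half of them and the mean; inconclusive = half reach 75% but not the mean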;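 note: 0% = cytokine-treated negative control wells and 100% = positive control rescue; higher means more ATP so stronger rescue from cytokine killing; wells of about 40 µL received 100 nL stock; the first replicate is given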
Beta2AR agonist = agonists of human beta-2 adrenergic receptor inducing internalization. P07550. Am2.2-beta2AR cells, FAP receptor internalization, flow cytometry; reference of the scale not given here. response, % (test concentration not listed). actives 0.43% (n = 340,000);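 active = response above a set limit, near 3 SD of response in nonfluorescent compounds, cut at about 42% in these data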;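 note: stock transfer was 100 nL into about 11 µL; a reference agonist was the positive control; negative values mostly stem from fluorescent compounds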
Target sequence (P07550 whole entry, looked up): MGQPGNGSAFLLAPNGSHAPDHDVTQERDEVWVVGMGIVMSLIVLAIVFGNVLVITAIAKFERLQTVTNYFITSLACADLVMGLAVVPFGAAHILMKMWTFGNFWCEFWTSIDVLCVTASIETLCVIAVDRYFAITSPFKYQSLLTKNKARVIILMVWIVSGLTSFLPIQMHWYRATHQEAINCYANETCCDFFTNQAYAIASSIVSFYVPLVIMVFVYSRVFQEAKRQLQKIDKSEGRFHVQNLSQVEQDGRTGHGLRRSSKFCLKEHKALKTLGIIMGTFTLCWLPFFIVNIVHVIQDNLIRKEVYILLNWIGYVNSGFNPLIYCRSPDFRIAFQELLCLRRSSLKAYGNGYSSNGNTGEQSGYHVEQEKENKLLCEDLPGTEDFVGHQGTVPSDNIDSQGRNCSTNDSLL
LANA-H2A inh = blocks KSHV LANA binding to histone H2A/H2B; inhibition, % (no concentration beside the values); actives 0.6% (n = 320,000); Q9QR71; cell-free LANA-H2A/H2B peptide, fluorescence polarization; in the data active = inhibition mostly above about 10%, no sharp cut-off; inactive = mostly below about 6.7%;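 note: stock transfer was 7.5 nL into about 10 µL; 0% = median of vehicle wells and 100% = median of positive control wells; one replicate is shown; the record names a cut of 25% in any replicate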
T cruzi repl = blocks replication of Trypanosoma cruzi; T. cruzi beta-gal in NIH3T3, luminescence, 90 h; inhibition, % (no concentration beside the values); actives 1.4% (n = 300,000); AID 1885;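 active = mean inhibition across valid replicates above about 55%, limit read from the data; inconclusive = mean below that limit but half or more replicates reach it; inactive = mean below it, under half of replicates reach it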;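 note: signal also drops with host cell toxicity which is not excluded here; 0% = plate median of DMSO wells and 100% = zero luminescence signal; higher percent means less beta-gal luminescence so fewer parasites; stock transfer was 50 nL into about 50 µL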
ALR H2O2 inh = inhibitors of human sulfhydryl oxidase ALR | AID 485317 | actives 3.8% (n = 290,000) | purified ALR, DTT oxidation, H2O2 HRP-luminol luminescence | inhibition, % (test concentration not listed) | P55789;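 active = mean and each replicate at 75% or more; inconclusive = only one of the two met; inactive = neither met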;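 note: stock transfer was 7.5 nL into about 7.5 µL; 0% = neutral wells and 100% = wells with inactivated enzyme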
Target sequence (P55789 whole entry, looked up): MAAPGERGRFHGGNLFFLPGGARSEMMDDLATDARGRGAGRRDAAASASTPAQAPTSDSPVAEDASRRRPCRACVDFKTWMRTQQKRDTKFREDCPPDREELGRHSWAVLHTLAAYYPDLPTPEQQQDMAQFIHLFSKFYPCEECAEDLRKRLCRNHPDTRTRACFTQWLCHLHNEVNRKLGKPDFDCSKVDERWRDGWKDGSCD
Ecoli rRNA inh = selective bacterial rRNA inhibition in E. coli. actives 1.6% (n = 350,000). E. coli WT GFP vs humanized-ribosome RFP mutants, fluorescence, 24 h; hits give low values; DMSO median 0, no signal -100. GFP signal change (wild-type ribosome), % (no concentration beside the values);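 active = significant combined selectivity score with lowered wild-type GFP, culture density cut under 30%, mutant RFP and density less affected; inactive = any of these conditions unmet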; note: one replicate is shown; some compounds called inactive have numbers as strong as hits
Bfl-1 A1 inh = inhibitors of the anti-apoptotic protein A1, read as caspase activation; caspase activation, % (no concentration beside the values); actives 0.066% (n = 330,000); MEF A1-2A-BIM cells, Caspase-Glo 3/7 luminescence, 3 h; percent of clofoctol response, vehicle zero;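 active = over half of replicate activation scores above 10%, or exactly half above 10 with the replicate mean above 10; inconclusive = replicate mean below 10 yet half the replicates above 10; inactive = over half of replicates below 10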;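 note: wells of about 30 µL received 50 nL stock; many hits fall short of the cut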
Calb FLC = C. albicans growth modulation with fluconazole. C. albicans CaCi-2 (fluconazole-resistant clinical isolate) + fluconazole, Alamar Blue growth, 48 h. growth inhibition, % (test concentration not listed). actives 0.57% (n = 300,000). AID 1979;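 active = most replicates above 75%; inconclusive = exactly half above 75%; inactive = most below 75%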;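 note: all wells also contain fluconazole at 8 µg/ml as a sub-toxic cotreatment; 0% = median of DMSO wells and 100% = median of geldanamycin control wells; wells of about 8 µL received 7.5 nL stock; the first replicate is given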
Ecoli rRNA inh OD600 = further read-out of Ecoli rRNA inh, marked with its call; OD600 change, %; measured here: OD600 growth;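 optical density of the mix in the first replicate; 0 = DMSO median and -100 = no signal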
Ecoli rRNA inh RFP = recorded beside Ecoli rRNA inh, whose call it bears; RFP signal change, %; measured here: RFP humanized mutant strains;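 first replicate; 0 = DMSO median and -100 = no signal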
* hit, by the source's call; ? = inconclusive; . = no result given. Not all compounds are listed (hit frequency here may not be typical).

SMILES	Beta apoptosis	Beta2AR agonist	LANA-H2A inh	T cruzi repl	ALR H2O2 inh	Ecoli rRNA inh	Ecoli rRNA inh OD600	Ecoli rRNA inh RFP	Bfl-1 A1 inh	Calb FLC
COc1cccc(OC)c1C(=O)Nc1ccccc1NC(=O)c1c(OC)cccc1OC	-4	11	4.3	5	-17	18	13	1.4	2.5	2
O=C(N/N=C\c1cccnc1)c1ccccc1O	0	-13	-3.7	-12	.	-2	1	-3.8	-1.1	8
Cc1cccc(NC(=O)c2ccc(COc3cccc4ccccc34)o2)n1	-12	14	-0.9	14	-44	3	5	6.8	0.2	5
O=C(Nc1ccc(OC(F)(F)C(F)F)c(NC(=O)c2cccc(F)c2)c1)c1cccc(F)c1	8	3	-8.7	3	-7	.	.	.	0.5	-11
Cc1cccc(NC(=O)CSCC(=O)OCc2ccccn2)c1	-7	0	2.7	-18	99*	6	12	-1.4	1.1	7
O=[N+]([O-])c1ccc(O)c(/C=N\N=C2c3ccccc3-c3ccccc32)c1	8	28	-1.4	-39	-2	.	.	.	-1.9	-5
COc1cccc(C(=O)Nn2c(C)nnc2-n2nc(C)cc2C)c1	-1	-3	1.5	-15	-3	.	.	.	1.8	-1
CCNc1c2c(nc3ccccc13)CC(C)(C)CC2=O	1	-19	-3.0	-13	1	.	.	.	1.0	3
COc1ccc(NC(=O)CC2SC(N3CCOCC3)=NC2=O)c(OC)c1 (stereo unspecified)	-4	-21	7.6	.	-3	8	9	-1.3	0.2	.
CC1(C)CC(=O)C2=C(C1)OC(N)=C(C#N)C2C1CC=CCC1 (stereo unspecified)	-3	11	-0.3	0	-12	-2	-1	-1.3	?	-6
CCN(CC(=O)Nc1c(F)cccc1F)C(=O)Cc1c(C)nc2ccccc2c1C	-4	-8	3.3	.	0	.	.	.	1.4	.
Cc1ccc(NC(=O)c2ccc3nsnc3c2)c(Cl)c1	5	0	0.7	5	1	8	17	-0.2	-10	-3
COc1ccc(C)cc1NC(=O)C1CCN(S(=O)(=O)c2cccc3nonc23)CC1	6	-2	7.6	11	0	2	4	-0.8	0.1	-3
CC(Sc1ccccc1)C(=O)Nc1ccc(N2CCOCC2)cc1 (stereo unspecified)	1	-6	2.1	2	.	.	.	.	0.1	-6
CCOC(=O)CSc1nnc(CSc2nc(C)cc(C)n2)n1Cc1ccco1	-2	-5	-5.2	-23	34	.	.	.	0.0	1
O=C(Cn1c(=O)sc2ccccc21)NCCOc1ccccc1F	-2	0	3.2	-5	.	.	.	.	0.0	-13
COc1ccc(C)cc1Nc1cc(C)nc2ncnn12	-6	2	3.6	3	-5	2	11	-3.2	-0.6	18
CCc1cccc(NC(=O)c2cc(S(=O)(=O)N(C)C)ccc2N2CCCC2)c1	-7	-1	-4.8	18	-1	-13	-10	-0.8	0.7	0
COc1ccc(-c2nc3ccccc3nc2-c2ccc(OC)c(OC)c2)cc1OC	2	7	-2.8	11	-9	-13	-14	-2.6	0.2	2
CCN(CC(=O)Nc1cc(Cl)ccc1C)C(=O)c1cc(S(=O)(=O)N2CCCCCC2)ccc1OC	10	4	-4.5	-5	-2	0	-2	-1.0	0.4	11
COc1cc(C2SCC(=O)N2CCCN(C)C)cc(OC)c1OC (stereo unspecified)	3	18	-1.6	61*	-7	.	.	.	-0.2	1
CC(C)c1ccc(N(C(=O)CNC(=O)c2ccco2)C(C(=O)NC2CCCC2)c2ccncc2)cc1 (stereo unspecified)	4	-1	2.5	48	2	5	11	-0.5	-0.3	4
O=C1c2ccccc2C(=O)N1c1ccc(Cl)cc1	-4	.	0.9	-21	-20	.	.	.	-0.6	?
COCCN(C(=O)CCC(=O)Nc1nccs1)C(C(=O)NC(C)(C)C)c1ccc(F)cc1 (stereo unspecified)	-11	-2	-0.7	10	0	6	5	-2.2	0.2	2
Cc1cccc(NC(=O)C[n+]2cccc(C)c2)c1	5	1	1.5	-7	.	7	8	0.6	2.1	-7
SMILES	Beta apoptosis	Beta2AR agonist	LANA-H2A inh	T cruzi repl	ALR H2O2 inh	Ecoli rRNA inh	Ecoli rRNA inh OD600	Ecoli rRNA inh RFP	Bfl-1 A1 inh	Calb FLC
Cc1noc(C)c1COc1ccc(C(=O)OCC(=O)Nc2cccc(S(=O)(=O)N3CCOCC3)c2)cc1	-1	4	0.6	-14	-3	.	.	.	-0.1	-7
O=C(Nc1cccc(Cl)c1)c1cnn2cccnc12	2	-3	3.0	-25	4	.	.	.	-7.4	7
Cc1ccc(Nc2nc3ccccc3n3nnnc23)cc1	10	-6	-5.6	4	4	8	0	2.5	-1.5	-3
Cn1c(CCNC(=O)c2ccco2)nc2cc(NC(=O)c3ccco3)ccc21	0	14	2.1	-24	-1	.	.	.	-1.1	-6
CCOc1ccccc1NC(=O)CN(c1ccc(C)cc1)S(=O)(=O)c1c(C)noc1C	3	12	-1.4	.	-10	.	.	.	0.2	.
CC(=O)C[C@@H](O)CC(=O)[C@@H]1OC(=O)CCCCC/C=C/Cc2ccccc21	0	6	-2.1	.	-2	-35	-32	-2.9	-0.5	.
Cc1ccc(N2CC(C(=O)N3CCN(C(=O)c4ccco4)CC3)CC2=O)cc1 (stereo unspecified)	.	-6	0.9	-11	-2	.	.	.	-0.5	13
CC1CCCCC1NC(=O)CN1CCN(Cc2ccccc2Cl)C1=O (stereo unspecified)	-8	14	0.4	-13	-1	.	.	.	1.5	3
O=C(NCC(=O)N1CCN(C(=O)c2ccco2)CC1)c1cccc(Cl)c1	1	-1	1.0	.	-7	6	10	-0.1	0.3	.
COc1ccc(-c2ocnc2C(=O)NCc2nn(-c3ccccc3)nc2C)cc1	66	-2	-2.8	.	-10	5	5	2.2	-0.3	12
CCC1(c2ccc(F)cc2)NC(=O)N(CC(=O)Nc2ccc(-c3nc4ccc(C)cc4s3)cc2)C1=O (stereo unspecified)	92*	11	2.0	53	-9	.	.	.	-1.0	-5
N#C/C(=C\c1ccc(O)c(Br)c1)C(=O)NCc1ccccc1	2	-9	-4.4	3	-10	-17	-30	-4.9	-0.2	62
O=C1c2ccccc2-c2cccc(NS(=O)(=O)c3ccc(C(F)(F)F)cc3)c21	-5	14	-3.2	4	-7	.	.	.	-0.2	33
COc1ccc(CCNC(=O)c2sc3nc4n(c(=O)c3c2C)CCC4)cc1	-4	-10	4.1	-8	-21	-9	-6	-0.7	0.3	8
COC(=O)C(NC(=O)c1ccccc1)(Nc1cc(C)cc(C)n1)C(F)(F)F (stereo unspecified)	-24	0	-1.5	-6	-11	.	.	.	-0.8	-2
Cc1ccc(/C=C/C(=O)Nc2ccc(S(=O)(=O)Nc3ncccn3)cc2)cc1	-1	17	-6.6	0	0	11	4	-2.5	0.4	5
Cc1cc(C)nc(NC(=O)Nc2ccc3c(c2)OCO3)c1	2	9	-0.8	-11	-9	11	15	-1.1	-2.2	-5
Cc1ccc(NC(=O)c2c(Cl)n(C)c3ccccc23)cc1	-2	-30	-6.0	10	-2	.	.	.	1.0	2
c1ccc2c(c1)ncn2Cc1nnc2sc(-c3ccncc3)nn12	0	0	1.9	-4	-18	.	.	.	0.5	-3
O=C(N/N=C/c1ccc(Br)s1)c1cccnc1	7	3	1.4	2	-4	.	.	.	-0.7	3
COc1cccc(C(=O)NNC2OC(CO)C(O)C2O)c1 (stereo unspecified)	3	0	-0.5	8	13	15	10	0.2	-1.3	1
Nc1scc[n+]1Cc1cccc2cccnc12	-1	2	-2.5	-2	-9	7	-4	-12	0.0	10
CC(=O)Nc1ccc(NC(=O)CSc2nnc(-c3cc(C)[nH]n3)n2N)cc1	-1	-4	6.6	9	-5	1	7	-1.1	0.0	-10
COc1cc(CN(C2CCCCC2)S(=O)(=O)c2ccc(S(=O)(=O)N(C)C3CCCCC3)cc2)cc(OC)c1OC	18	3	3.4	50	.	.	.	.	0.2	15
O=C(Nc1ccc(O)c(-c2nc3ccccc3s2)c1)C1=COCCO1	7	0	6.7	7	30	18	18	5.2	-0.4	11
SMILES	Beta apoptosis	Beta2AR agonist	LANA-H2A inh	T cruzi repl	ALR H2O2 inh	Ecoli rRNA inh	Ecoli rRNA inh OD600	Ecoli rRNA inh RFP	Bfl-1 A1 inh	Calb FLC
O=C(COc1ccccc1)NCC(=O)N1CCCCCC1	-1	-1	50*	.	-2	10	10	-0.9	0.3	.
CC(=O)N1CCCN(Cc2cn(-c3cc(C)ccc3C)nc2-c2ccccc2)CC1	0	-6	-3.9	1	-2	-2	-10	4.6	0.4	-3
O=C(CCS(=O)(=O)c1ccc(Br)cc1)Nc1ccccn1	-4	-1	1.5	-6	-2	.	.	.	0.8	-4
C/C(=N\NC(=O)CSc1nc2ccccc2o1)c1cccc(O)c1	-6	-27	1.4	8	.	8	8	2.9	0.7	0
CCN(CC)S(=O)(=O)c1ccc(N2CCc3ccccc3C2)nc1	6	-3	0.7	24	0	-2	5	3.8	0.1	-5
Cc1ccc(CN2CCC(CNC(=O)Nc3ccccc3F)CC2)cc1	4	3	2.2	37	-7	22	15	5.3	0.1	-7
Cc1ccc(Cn2c(CN3CC(C)OC(C)C3)nc3c2c(=O)[nH]c(=O)n3C)cc1 (stereo unspecified)	6	0	-6.1	4	-1	.	.	.	-0.3	-6
CC1CCCC(C)N1CCNC(=O)CCn1nc(-c2ccccc2)ccc1=O (stereo unspecified)	-6	-3	-1.5	6	1	2	7	-3.0	-0.4	-4
O=C1c2ccccc2C(=O)N1CN(C(=O)c1ccccc1)c1ccc(O)cc1	-2	-4	-0.2	-2	-27	0	22	2.0	-0.4	-13
Cc1ccc(NS(=O)(=O)c2cccc(C(=O)NCCc3c[nH]c4ccccc34)c2)c(C)c1	0	0	6.3	22	-4	-45	-67	-2.9	-1.2	22
Cc1nn(-c2ccccc2)c(Cl)c1/C=C1\SC(=S)N(C)C1=O	-10	-13	-1.0	-17	17	.	.	.	-0.2	-20
COc1cc(NC(=O)COc2ccc(C)c(C)c2)ccc1NC(=O)c1ccco1	-2	-7	-2.0	-5	-14	-4	-5	8.6	0.0	-4
CS(=O)(=O)c1nc(-c2ccccc2)c(-c2ccccc2)[nH]1	4	10	-5.3	2	5	.	.	.	2.9	10
O=C(Nc1ccc(N2CCCC(O)C2)cc1)c1snc2c(=O)[nH]cnc12 (stereo unspecified)	4	-1	0.2	7	-1	.	.	.	-1.0	-3
CCOC(=O)c1c(C)[nH]c(C)c1S(=O)(=O)N1CCN(C(=O)c2ccco2)CC1	-4	-77	5.8	-3	-11	-7	5	-7.4	1.1	-12
Cc1ccc2oc(C(=O)NCC3CCOCC3)c(C)c2c1	-3	-8	2.3	-12	-9	10	8	4.7	-0.4	6
Cc1ccc2cc(COC(=O)C3CCCO3)c(=O)[nH]c2c1 (stereo unspecified)	-1	2	3.5	5	-11	.	.	.	0.0	-5
Cc1ccc(C2(c3noc(CN(C)Cc4ccccn4)n3)CCCC2)cc1	0	0	0.4	-19	-28	-20	-24	-2.4	-0.4	-4
COc1ccc(S(=O)(=O)N2CCOC2CNC(=O)C(=O)NCCCN(C)C)cc1C (stereo unspecified)	-10	3	-7.0	22	.	7	5	2.1	-1.3	-6
